gsp ag: agonists of gsp mutant (McCune-Albright syndrome); gsp mutant cells, cAMP HTRF, 30 min; control for the full effect not named in the record; Potency, µM (top dose mostly 76.9 µM), for the others: at the top dose activation (cAMP increase), most hits filed as activators; 340,000 compounds, 0.13% hits; AID 624287; active = well fitted activation curve with a large enough effect; inconclusive = small, poorly fitted or top-dose-only effect, or another doubt; inactive = no such curve, though single readings can be large or run the other way; cell line not stated here;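 also: phosphodiesterase inhibitor Ro 20-1724 added with compounds to block cAMP breakdown; potency is read from the fitted curve at half-maximal effect; nearly all actives have a fitted effect of over 60% in size; about a fifth of the inactives were tested at one dose only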
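Cells in DMEM/10% FBS with G418 were pretreated with compounds in DMSO plus […] (300 uM stock) for 30 min at 37C. cAMP was measured by HTRF (cAMP-d2 plus anti-cAMP antibody-K) after 30 min at room temperature.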
TRPV1 PAM: potentiators of human vanilloid receptor 1 (TRPV1) | Q8NER1 | TRPV1-expressing cells, Fluo-8 calcium influx, capsaicin EC20 potentiation; host cell line not named in the record; control for the full effect not named in the record | potentiation, % at 8.33 µM | 320,000 compounds, 0.02% hits | AID 540277; active means potentiation above 80%; inconclusive means 30% to 80%; inactive means below 30%; also: 0% is about no effect
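Fluo-8 calcium influx in TRPV1-expressing cells, kinetic read (ex 480/em 520 nm). Compound added and read 3 min for agonist activity, followed by capsaicin at EC20 final and 2 min further read for enhancement.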
Menin-MLL FL inh: menin-MLL binding inhibition, fluorescein peptide | Fluorescence polarization, fluorescein-MLL peptide displacement from menin | 290,000 tested, under 10 active | FP activity change, % at 61.4 µM; inconclusive = falling polarisation curve, or a change in total fluorescence; inactive = total fluorescence flat and polarisation flat or rising; no compound was filed as active; the % refers to the polarisation; negative = inhibition;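 also: % of control where 0% means no effect; inhibitors lower the polarisation; unlabelled MLL peptide was the positive control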
gsp antag: antagonizes gsp, the McCune-Albright syndrome mutation | 340,000 compounds, 0.4% hits | Potency, µM (series often up to 76.9 µM), for the others: at the top dose activity change, negative = inhibition, actives largely listed as inhibitors | gsp-mutant cells, cAMP HTRF, 30 min; control for the full effect not named in the record; active = falling curve of any shape with a large fitted effect; inconclusive = falling curve, mostly with a smaller effect; inactive = flat or rising curve; cell line not stated here;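 also: intracellular cAMP measured with PDE inhibitor Ro 20-1724 present during compound exposure; potency is read from the fitted curve at half-maximal effect; % is scaled to controls: 0 for no effect and ±100 for the full control effect; nearly all actives have a fitted effect of over 65% in size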
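HTRF cAMP measurement after 30 min RT detection following 30 min, 37C compound treatment alongside […] (added as 300 uM solution) in G418-selected cells seeded at 2000/well and grown 16–24 h.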
CtBP-E1A inh: inhibitors of CtBP/E1A interaction. AlphaScreen GST-E1A/His-CtBP binding, 1536-well; active compounds read low; control for the full effect not named in the record. 340,000 compounds, 0.49% hits. AID 651724. activity change, % (no concentration beside the values); in the data active means activity change below about -65%; inconclusive means about -30% to -65%; inactive means above about -30%; also: % is scaled to controls: 0 for no effect and ±100 for the full control effect
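Homogeneous bead-based format: GST-tagged E1A captured on glutathione donor beads, His-tagged CtBP on nickel acceptor beads; compounds precede bead addition by 2 h at 37 °C.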
Sfp inh: Sfp phosphopantetheinyl transferase inhibition | Biochemical Sfp PPTase activity, qHTS | 310,000 compounds, 3.5% hits | Q9F4F7 | Potency, µM, for inactives: max response, negative = inhibition, usual class: inhibitors; active = well fitted inhibition curve with a large enough effect; inconclusive = small, poorly fitted or top-dose-only effect, or another doubt; inactive = no such curve, though single readings can be large or run the other way;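 also: the enzyme is Sfp with the accession as filed and its product quenches rhodamine fluorescence; potency is read from the fitted curve at half-maximal effect; 0% = enzyme reaction without inhibitor and -100% = no enzyme wells; top concentration of the series not given in the record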
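Reaction rates are the 30-min fluorescence difference (ex 525, em 598 nm) in wells containing 15 nM Sfp, 5 uM rhodamine-CoA and 12.5 uM BHQ-2-YbbR at pH 7.6 with 10 mM MgCl2.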
ClpP mod: qHTS Assay for Activators of ClpP. purified B. subtilis ClpP, FRET peptide cleavage, 20 min. AID 651965, 2013. 340,000 compounds, 1.9% hits. Potency, µM (titrated, usually from 57.5 µM), for the others: at the highest dose activity change, negative = active. ATP-dependent Clp protease proteolytic subunit (Bacillus subtilis (strain 168)), P80244; active = well fitted falling curve with a large enough effect; inconclusive = small, poorly fitted or top-dose-only effect; inactive = no such curve, though single readings can be large or run the other way; also: potency is read from the fitted curve at half-maximal effect; the source files actives as falling curves though it sought activators and does not explain the sign; nearly all actives have a fitted effect of over 65% in size; many hits overshoot -100%
Target sequence (P80244 whole entry, looked up): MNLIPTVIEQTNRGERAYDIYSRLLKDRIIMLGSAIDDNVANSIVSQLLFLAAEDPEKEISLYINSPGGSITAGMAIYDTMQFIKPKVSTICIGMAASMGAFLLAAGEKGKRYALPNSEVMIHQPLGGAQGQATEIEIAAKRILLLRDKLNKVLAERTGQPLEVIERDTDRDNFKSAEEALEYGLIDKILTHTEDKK
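FRET quenching reversal measured ClpP activation: 10 microg/mL B. subtilis ClpP at pH 8 with the FRET-FV decapeptide, read at 430 nm after 320 nm excitation. The 20-min minus 0-min signal was scaled between DMSO/no-enzyme wells and ADEP (5.8 microM final).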
* = called active by the depositor; ? = inconclusive; nt = no result given; & = joins results of further samples; [ ] = another dose, or the depositor's remark.

Every second line gives: gsp ag	TRPV1 PAM	Menin-MLL FL inh	gsp antag	CtBP-E1A inh	Sfp inh	ClpP mod
O=C(NCc1ccccn1)c1nc(-c2ccc(C(F)(F)F)cc2)no1
    4%	-6	0.9	2%	0	-1%	nt
Cc1ccccc1S(=O)(=O)N1[C@@H](c2ccc(Br)cc2)C(C(=O)O)=CC[C@H]1c1ccc(Cl)cc1
    nt	nt	nt	-21%	0	nt	1.5%
O=C(CSCc1cnn(-c2ccccc2)c1-n1cccc1)NCc1ccccn1
    3%[15.4 µM]	-16	3.5	-3%	8	-12%	nt
CC(NC(=S)Nc1ccccc1OC(F)F)C(C)(C)C (centres undefined)
    -15%	13	7.1	-5%	-7	15%	-0.6%
CN(C)Cc1cc(CN(C)C)c(O)c(CCc2ccccc2)n1
    -1%	-16	-3.5	0%	0	-1%	-0.2%
CCN(CC)C(=O)CN(c1cccc(Br)c1)S(C)(=O)=O
    -16%	-11	-1.3	10%	0	13%	nt
Cc1ccc(-n2nc3c(c2NC(=O)c2ccc4c(c2)OCO4)CS(=O)(=O)C3)c(C)c1
    ?	-2	2.8	-24%	16	7%	1.0%
O=C(N/N=C/c1ccc(O)cc1)c1cccc(C(F)(F)F)c1
    7%	1	5.8	3%	-3	6%	-0.9%
CC(OC(=O)Cn1[nH]c(=O)c2ccccc2c1=O)C(=O)NC1(C#N)CCCCC1 (centres undefined)
    -1%	10	nt	9%	-6	nt	-11%
CCC(=O)Nc1nc(-c2ccc3c(c2)OCCO3)cs1
    16%	12	2.3	-1%	16	12%	2.7%
CN(Cc1cn(C)nc1-c1ccc(Oc2ccccc2)cc1)Cc1cnc2ccccn12
    ?	2	1.4	40µM*	nt	-8%	-5.1%
CCSC1(SCC)N=C(N)C2(C#N)C(c3ccc(F)cc3)C12C#N (centres undefined)
    ?	-28	4.9	0%	0	-21%	-1.9%
CN(C)c1ccc(N2C(=O)CC(Sc3ccccc3C(=O)O)C2=O)cc1 (centres undefined)
    7%	-4	2.1	7%	8	45µM*	-2.3%
CNS(=O)(=O)c1ccc(CNC[C@H]2O[C@@H](n3ccc(N)nc3=O)[C@H](O)[C@@H]2O)cc1
    11%	nt	nt	nt	-14	nt	-0.7%
Clc1ccc2scc(CN3CCCC3)c2c1
    -5%	nt	nt	-3%	nt	nt	-1.4%
CC12CCC(c3nnc(SCc4ccc(Cl)cc4)nc31)C2(C)C (centres undefined)
    7%	?	2.6	12%	7	-6%	20µM*
COc1ccc(NC(=S)N2CCC(c3nc4ccc(Cl)cc4[nH]3)CC2)c(OC)c1
    5%	?	-2.6	-18%	0	-13%	-0.3%
O=C(Cn1nc(Cl)nc1Cl)c1ccc([N+](=O)[O-])cc1
    -18%	6	-1.1	-4%	2	4%	0.1%
CCCCOc1ccc(Cl)cc1CSc1nnc(CC)n1N
    -15%	14	-0.1	-12%	5	10%	-0.4%
Cc1cc(C)n(-c2ccc(C(=O)NC3=NCCS3)cc2)n1
    -94%[inhibitor]	-31	0.0	9%	1	17%	-7.8%
Nc1ccc(C(=O)OCC(=O)N2c3ccccc3Sc3ccccc32)cc1[N+](=O)[O-]
    -11%	-11	6.0	-12%	-28	6%	-1.6%
COC(=O)C[C@H]1c2cc(C(F)(F)F)ccc2S(=O)(=O)N1Cc1ccccc1
    -4%	nt	nt	11%	-5	nt	1.8%&1.4%
CCN1CCN(c2nc(SC)nc3sc4c(c23)CC(C)(C)OC4)CC1
    -34%[inhibitor]	-8	-2.6	-3%	0	11%	?
CC(=O)OCC1CCCC2=C(C)C(=O)CCC21COC(C)=O (centres undefined)
    -2%	7	0.0	12%	-4	25%	1.9%
Cc1cccc2cc(C3CC(c4ccco4)=NN3S(=O)(=O)c3ccccc3)c(Cl)nc12 (centres undefined)
    -3%	1	23	4%	0	17%	0.3%
CCOc1ccc(N2CC(O)(c3ccc(F)cc3)[N+]3=C2CCCC3)cc1 (centres undefined)
    -9%[15.4 µM]	2	4.8	11%	-3	5%	nt
Cc1ccc2c(c1)N(CC(=O)NCC(C)c1ccccc1)C(=O)c1cccnc1O2 (centres undefined)
    -37%	-16	-0.9	-11%	-5	27%	-0.3%
C/C(CCc1ccccc1)=N\NC(=O)CC(=O)NCCc1ccccc1
    -2%	-3	0.3	8%	1	20%	-1.1%
CCOC(=O)C(Cc1ccccc1)(NC(C)=O)C(=O)OCC
    17%	-3	2.1	-2%	3	19%	0.3%
Cc1nnc(NC(=O)c2ccc(S(=O)(=O)N3CCOCC3)cc2)s1
    -7%[15.4 µM]	1	-1.2	-7%	-2	7%	nt
CCNC(=O)C/C(C)=N/NC(=O)C12CC3CC(CC(C3)C1)C2
    -7%	-23	-0.9	4%	-2	-3%	-2.2%
CCc1ccc(Oc2coc3cc(O)ccc3c2=O)cc1
    46%	-6	4.7	-14%	2	13%	3.6%
CCOc1ccc(Cl)cc1CNc1nnnn1C
    ?	2	2.0	-26%	nt	17%	-1.9%
CN1CCCc2cc(C=O)ccc21
    -3%	-13	6.5	14%	6	-13%	-13%
Cc1ccc(C(=O)NCCN(C)C)cc1C
    1%	6	-0.1	-2%	8	10%	-0.3%
COc1cccc2c1OCC(CN1CCN(C3CCCCC3)C(CCO)C1)=C2 (centres undefined)
    7.9µM*	-9	1.1	1%	1	11%	nt
CCOC(=O)/C=c1\s/c(=C\c2ccccc2OC)c(=O)n1CC(=O)N1CCOCC1
    6%	-4	0.7	-5%	7	0%	-1.4%
Cn1cccc1C(=O)OCC(=O)c1c[nH]c2ccccc12
    2%[15.4 µM]	nt	nt	-2%	-2	nt	-2.6%
Cc1nn(Cc2ccccc2)c(Cl)c1C(=O)NC(C)(C)C
    10%[15.4 µM]	1	0.0	1%	6	13%	1.2%
O=C(NCCN=C1NS(=O)(=O)c2ccccc21)c1ccc(S(=O)(=O)N2CCOCC2)cc1
    20%	-6	0.2	12%	-10	-4%	0.6%

One compound at a time (already shown). Order of values: gsp ag, TRPV1 PAM, Menin-MLL FL inh, gsp antag, CtBP-E1A inh, Sfp inh, ClpP mod
CCOc1ccc(Cl)cc1CNc1nnnn1C is entered as ?, 2, 2.0, -26%, nt, 17%, -1.9%
CCN1CCN(c2nc(SC)nc3sc4c(c23)CC(C)(C)OC4)CC1 is entered as -34%[inhibitor], -8, -2.6, -3%, 0, 11%, ?

New compounds follow
mol | gsp ag | TRPV1 PAM | Menin-MLL FL inh | gsp antag | CtBP-E1A inh | Sfp inh | ClpP mod
O=C(CSc1nnc2ccc(-c3ccccn3)nn12)N1CCCC1 | 4% | nt | nt | 14% | 10 | nt | -1.3%
COc1ccc(C)cc1Nc1nc(-c2c(C)[nH]c3ccccc23)cs1 | 8% | -9 | 0.0 | -12% | nt | 1% | -3.0%
Cc1cccc(-n2c(CCN3C(=O)c4ccccc4C3=O)nc3ccccc3c2=O)n1 | -25%[15.4 µM] | 9 | 4.0 | 3% | -27 | -3% | -2.3%
COc1ccc(CNC(=O)CSc2nc3ccc(C)cc3[nH]2)cc1 | 4% | -2 | 4.2 | -5% | 10 | 7% | nt
CC(C)(C)c1ccc(C(CC(=O)O)NS(=O)(=O)Cc2ccccc2)cc1 (centres undefined) | 9% | -1 | -7.5 | -17% | 6 | 0% | 0.6%
CCC(=O)Nc1cccc(NC(=O)c2ccc3c(c2)OCO3)c1 | 2% | -5 | 3.9 | -6% | -4 | 13% | 0.0%
Nc1c(N2CCCCC2)c(=O)[nH]c(=O)n1-c1ccccc1 | -28% | 7 | 3.3 | 11% | 2 | 15% | -0.7%
Cc1ccccc1-n1nnnc1SCC(=O)c1c(N)n(C2CC2)c(=O)[nH]c1=O | 4% | 7 | nt | 6% | 5 | nt | -1.0%
CCN1CCN(C(=O)CN(C)S(=O)(=O)c2ccc(OC)cc2)CC1 | -15% | 8 | 6.9 | -1% | -1 | 20% | 1.2%
CCc1ccc(NC(=O)Cn2nnc(-c3ccc(C)cc3-n3cnnn3)n2)cc1 | -2% | 6 | 1.0 | -8% | nt | 11% | -3.2%
CCn1nc(C(=O)NNS(=O)(=O)c2cc(/C=C/C(=O)O)cc(OC)c2OC)c2ccccc2c1=O | 0%[15.4 µM] | nt | nt | 10% | -1 | nt | 5.6µM*
CC(C)NC(=O)NNC(=O)c1cc(COc2cc(Cl)cc(Cl)c2)on1 | -14%[15.4 µM] | 21 | 1.5 | -1% | 4 | ? | 1.0%
Clc1ccc(C=Cc2ccccn2)c(Cl)c1 | 6% | nt | nt | -9% | 26 | nt | nt
Cc1ccc(NS(=O)(=O)c2c(C)nc3sccn3c2=O)cc1 | -91%[inhibitor] | -25 | 4.0 | 4% | -18 | 17% | -3.5%
Clc1cccc(Cl)c1CNc1ccc(N2CCCC2)cc1 | 9%[15.4 µM] | 0 | -1.1 | -4% | -22 | ? | nt

Assay outcomes from PubChem BioAssay.
